# Screening data as filed in PubChem BioAssay.
# Menin-MLL FL inh: inhibitors of human menin-MLL interaction, wild-type MLL peptide. Fluorescence polarization, fluorescein-MLL peptide displacement from menin. FP activity change, % at 61.4 µM. 290,000 tested, under 10 active. AID 1766; inconclusive = falling polarisation curve, or a change in total fluorescence; inactive = total fluorescence flat and polarisation flat or rising; no compound was filed as active; the % refers to the polarisation; negative = inhibition;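 note: % of control where 0% means no effect; inhibitors lower the polarisation; unlabelled MLL peptide was the positive control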
# gsp agonist: agonists of gsp mutant (McCune-Albright syndrome). gsp mutant cells, cAMP HTRF, 30 min; control for the full effect not named in the record. Potency, µM (doses to about 76.9 µM), inactives show top-dose activation (cAMP increase), actives largely listed as activators. actives 0.13% (n = 340,000). AID 624287; active = well fitted activation curve with a large enough effect; inconclusive = small, poorly fitted or top-dose-only effect, or another doubt; inactive = no such curve, though single readings can be large or run the other way; cell line not stated here;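 note: phosphodiesterase inhibitor Ro 20-1724 added with compounds to block cAMP breakdown; potency is the fitted concentration of half-maximal effect; nearly all actives have a fitted effect of over 60% in size; about a fifth of the inactives were tested at one dose only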
#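 Cells in DMEM/10% FBS with G418 were pretreated with compounds in DMSO plus […] (300 uM stock) for 30 min at 37C. cAMP was measured by HTRF (cAMP-d2 plus anti-cAMP antibody-K) after 30 min at room temperature.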
# TRPV1 PAM: enhances activation of the human vanilloid receptor TRPV1; Q8NER1; TRPV1-expressing cells, Fluo-8 calcium influx, capsaicin EC20 potentiation; host cell line not named in the record; control for the full effect not named in the record; potentiation, % at 8.33 µM; actives 0.02% (n = 320,000); AID 540277; active means potentiation above 80%; inconclusive means 30% to 80%; inactive means below 30%; note: 0% is about no effect
# Target sequence (Q8NER1 whole entry, looked up): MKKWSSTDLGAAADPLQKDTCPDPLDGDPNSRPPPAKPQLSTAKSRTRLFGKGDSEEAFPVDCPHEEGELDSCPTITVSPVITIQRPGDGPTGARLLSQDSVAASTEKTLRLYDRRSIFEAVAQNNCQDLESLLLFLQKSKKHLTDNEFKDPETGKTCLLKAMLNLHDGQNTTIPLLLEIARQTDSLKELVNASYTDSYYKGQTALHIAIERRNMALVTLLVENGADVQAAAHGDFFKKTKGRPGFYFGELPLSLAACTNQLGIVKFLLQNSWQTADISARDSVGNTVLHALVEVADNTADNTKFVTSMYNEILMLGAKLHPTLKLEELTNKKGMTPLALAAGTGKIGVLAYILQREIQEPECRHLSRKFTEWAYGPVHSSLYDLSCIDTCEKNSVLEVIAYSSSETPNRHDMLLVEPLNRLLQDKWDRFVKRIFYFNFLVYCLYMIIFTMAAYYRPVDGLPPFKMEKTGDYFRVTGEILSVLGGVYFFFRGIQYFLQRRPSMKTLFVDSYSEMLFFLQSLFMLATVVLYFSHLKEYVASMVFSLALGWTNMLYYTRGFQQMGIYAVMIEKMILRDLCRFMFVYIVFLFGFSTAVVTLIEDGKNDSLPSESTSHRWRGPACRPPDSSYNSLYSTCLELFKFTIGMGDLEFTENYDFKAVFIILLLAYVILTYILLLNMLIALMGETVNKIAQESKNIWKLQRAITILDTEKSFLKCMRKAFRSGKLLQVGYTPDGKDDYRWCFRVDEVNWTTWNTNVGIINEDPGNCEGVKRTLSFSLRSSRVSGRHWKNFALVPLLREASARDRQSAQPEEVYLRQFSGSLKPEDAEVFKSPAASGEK
#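 TRPV1-expressing cells were cultured overnight at 35.5C and loaded with Fluo-8 calcium dye for 40 to 90 min at room temperature. After a 10 s baseline, compound was added and calcium influx was read kinetically for 3 min (ex 480/em 520 nm).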
# Sfp PPTase inh: blocks B. subtilis Sfp PPTase activity; Q9F4F7; Biochemical Sfp PPTase activity, qHTS; Potency, µM, for the others: max response, negative = inhibition, actives largely listed as inhibitors; actives 3.5% (n = 310,000); AID 1490; active = well fitted inhibition curve with a large enough effect; inconclusive = small, poorly fitted or top-dose-only effect, or another doubt; inactive = no such curve, though single readings can be large or run the other way;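 note: the enzyme is Sfp with the accession as filed and its product quenches rhodamine fluorescence; potency is the fitted concentration of half-maximal effect; 0% = enzyme reaction without inhibitor and -100% = no enzyme wells; top concentration of the series not given in the record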
#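 With Hepes-Na pH 7.6 buffer containing 10 mM MgCl2, Sfp (15 nM) modified BHQ-2-YbbR (12.5 uM) using rhodamine-CoA (5 uM). Two reads 30 minutes apart at 525/598 nm yielded each well's rate.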
# gsp antagonist: antagonizes gsp, the McCune-Albright syndrome mutation. gsp-mutant cells, cAMP HTRF, 30 min; control for the full effect not named in the record. Potency, µM (series often up to 76.9 µM), without a hit: at the highest dose activity change, negative = inhibition, usual class: inhibitors. actives 0.4% (n = 340,000); active = falling curve of any shape with a large fitted effect; inconclusive = falling curve, mostly with a smaller effect; inactive = flat or rising curve; cell line not stated here;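 note: intracellular cAMP measured with PDE inhibitor Ro 20-1724 present during compound exposure; potency is the fitted concentration of half-maximal effect; % is set by controls: 0 for no effect and ±100 for the full control effect; nearly all actives have a fitted effect of over 65% in size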
#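 Cells in G418 medium, seeded 16-24 h, 37C; buffer exchange to DPBS + 1 mM CaCl2, 0.5 mM MgCl2, 0.05% BSA; cpds in DMSO + […] (300 uM stock), 30 min 37C; HTRF cAMP detection.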
# ClpP mod: qHTS Assay for Activators of ClpP | ATP-dependent Clp protease proteolytic subunit (Bacillus subtilis (strain 168)), P80244 | purified B. subtilis ClpP, FRET peptide cleavage, 20 min | Potency, µM (titrated, usually from 57.5 µM), for the others: at the top dose activity change, negative = active | actives 1.9% (n = 340,000) | AID 651965, 2013; active = well fitted falling curve with a large enough effect; inconclusive = small, poorly fitted or top-dose-only effect; inactive = no such curve, though single readings can be large or run the other way; note: potency is the fitted concentration of half-maximal effect; the source files actives as falling curves though it sought activators and does not explain the sign; nearly all actives have a fitted effect of over 65% in size; many hits overshoot -100%
# Target sequence (P80244 whole entry, looked up): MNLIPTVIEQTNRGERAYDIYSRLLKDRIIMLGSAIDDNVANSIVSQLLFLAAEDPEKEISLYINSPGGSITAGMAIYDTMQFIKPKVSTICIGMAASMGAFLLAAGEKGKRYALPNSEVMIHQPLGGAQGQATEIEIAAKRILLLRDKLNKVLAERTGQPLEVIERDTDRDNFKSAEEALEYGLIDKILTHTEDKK
#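 FRET quenching reversal measured ClpP activation: 10 microg/mL B. subtilis ClpP at pH 8 with the FRET-FV decapeptide, read at 430 nm after 320 nm excitation. The 20-min minus 0-min signal was scaled between DMSO/no-enzyme wells and ADEP (5.8 microM final).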
# CtBP-E1A inh: CtBP/E1A binding inhibition | AlphaScreen GST-E1A/His-CtBP binding, 1536-well; hits give low values; control for the full effect not named in the record | AID 651724 | actives 0.49% (n = 340,000) | activity change, % (test concentration not listed); in the data active means activity change below about -65%; inconclusive means about -30% to -65%; inactive means above about -30%; note: % is set by controls: 0 for no effect and ±100 for the full control effect; compound concentration not given in the record
#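 In 5 uL wells, 23 nL compound meets equimolar GST-E1A and His-CtBP (5X stock 125 nM each) for 2 h, 37 °C. Beads (5X, 50 ug/mL) then 1 h, 37 °C, dark.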
# * marks the source's active call; other numbers are inactive results; u = inconclusive; x = not tested or not shown; & = joins results of further samples; [ ] = dose if it differs, or a comment. A portion of the library; rates above refer to the full screens.
# Value order: Menin-MLL FL inh	gsp agonist	TRPV1 PAM	Sfp PPTase inh	gsp antagonist	ClpP mod	CtBP-E1A inh
> COc1ccc2c(c1)C1(C(=O)O)CC=CCC1(C(=O)O)C2 (stereo unspecified)
 : x	-32%[inhibitor]	x	x	-3%	-0.7%	2
> Cc1ccccc1NC(=O)N1Cc2ccccc2-n2nncc2C1
 : x	-55%[inhibitor]	x	x	x	0.2%	7
> CC1CNCCN1c1ccc(Cl)cc1 (stereo unspecified)
 : x	-6%	x	x	9%	-0.3%	1
> O=C1CN=C(c2ccc(Br)cc2)c2c(sc3c2CCCC3)N1CCN1CCCCC1
 : 6.5	2%	-11	9%	-13%	1.2%	-18
> COC(=O)C1=C(c2ccc(-c3ccccc3)c(F)c2)C[C@@H]2CC[C@H]1N2C(=O)N1CCC(C)CC1
 : x	x	2	x	-14%	-13%	-8
> CN1C2CCC1C(COC(=O)c1ccccc1)C(O)C2 (stereo unspecified)
 : 0.1	-1%	5	12%	7%	x	-5
> CSc1nc2ccc(C)cc2c(=O)n1-c1cccnc1
 : 0.1	-4%	-17	24%	2%	x	2
> COC(=O)C1=C(c2ccc(F)cc2OCc2ccccc2)C[C@@H]2CC[C@H]1N2C(=O)NCc1ccc(OC)c(OC)c1
 : x	-31%[inhibitor]	-4	x	-20%	0.3%	-22
> Cc1ccc(CNCCc2ccccc2F)cc1
 : -0.2	-2%	0	6%	16%	3.8%	0
> CN1CCN(c2ccc([N+](=O)[O-])c(N/N=C3\CN4CCC3CC4)c2)CC1
 : 4.3	u	1	0%	5%	0.2%	1
> COc1ccc(CNC(=O)CCC(=O)N2C[C@H]3C[C@H](C2)c2cccc(=O)n2C3)cc1
 : 2.8	x	-1	8%	2%	-5.4%	3
> Cc1ccsc1C(=O)C1CCCN(Cc2cc(C(C)C)n[nH]2)C1 (stereo unspecified)
 : 3.9	-9%[15.4 µM]	17	8%	12%	x	1
> Cc1ccsc1C(=O)C1CCCN(Cc2ccc(O)cc2)C1 (stereo unspecified)
 : -4.7	2%[15.4 µM]	-3	9%	5%	-1.9%	6
> Cc1ccc2c(c1)=NC(=O)/C(=C/c1c(O)[nH]c(=O)[nH]c1=O)C=2
 : 3.4	26%	-3	35µM*	4%	26%	4
> c1cnc(N2CCNCC2)nc1
 : 6.2	x	3	-30%	6%	-25%	1
> FC(F)(F)c1cccc(NC2=NCCCS2)c1
 : 1.4	-17%	-1	23%	5%	-0.6%	x
> COc1cccc(N2C(=O)/C(=C/c3ccc(C)o3)C(=O)NC2=S)c1
 : u	8%	16	25µM*	-8%	-1.0%	x
> COc1ccc2ccccc2c1CNCCc1ccccc1
 : -6.6	8%	3	1%	-4%	-12%	x
> Cc1[nH]nc2c1C1(CCC(c3ccccc3)CC1)C(C#N)=C(N)O2 (stereo unspecified)
 : -0.1	-27%	-7	12%	u	0.1%	-5
> C[C@@]12N[C@@H](Cc3ccccc31)c1ccccc12
 : x	x	x	x	-2%&6%	0.7%&1.7%	9&4

# Reformatted with each value named: part of the list above
Cc1ccc(CNCCc2ccccc2F)cc1
  Menin-MLL FL inh = -0.2; gsp agonist = -2%; TRPV1 PAM = 0; Sfp PPTase inh = 6%; gsp antagonist = 16%; ClpP mod = 3.8%; CtBP-E1A inh = 0
Cc1ccc2c(c1)=NC(=O)/C(=C/c1c(O)[nH]c(=O)[nH]c1=O)C=2
  Menin-MLL FL inh = 3.4; gsp agonist = 26%; TRPV1 PAM = -3; Sfp PPTase inh = 35µM*; gsp antagonist = 4%; ClpP mod = 26%; CtBP-E1A inh = 4

# (continued)
# Value order: Menin-MLL FL inh	gsp agonist	TRPV1 PAM	Sfp PPTase inh	gsp antagonist	ClpP mod	CtBP-E1A inh
> COC(=O)C1=C(c2cccc(OC)c2OC)C[C@@H]2CC[C@H]1N2C(=O)NCc1ccc(C(F)(F)F)cc1
 : x	x	x	x	-2%	1.6%	3
> Cc1c(N=Cc2c(O)n(Cc3ccc(F)cc3)c(=O)[nH]c2=O)c(=O)n(-c2ccccc2)n1C
 : 1.7	9%	7	-7%	2%	1.2%	8
> O=C1CN=C(c2ccccc2)c2cc(Br)ccc2N1Cc1cc(=O)n2ccccc2n1
 : -0.9	-66%	-6	6%	-11%	-27%	1
> CCOC(=O)c1c(N)n(Cc2ccc(OC)cc2)c2nc3ccccc3nc12
 : 0.9	x	7	0%	x	x	x
> OCCNCCc1c[nH]c2ccc(OCc3ccccc3)cc12
 : 0.7	0%	u	-7%	3%	-0.1%	x
> COc1ccc(-n2nc(C(=O)NCC(=O)N3CCC4(CC3)OCCO4)c3ccccc3c2=O)cc1Cl
 : 2.1	31%[15.4 µM]	17	41%[activator]	-10%	x	4
> Cn1c(=O)cc(OCC(=O)N2CCC3(CC2)OCCO3)c2ccccc21
 : 1.7	20%	8	30%	3%	-4.6%	1
> C#CC1(O)CCC2C3CCC4=C/C(=N/OCC(=O)NCC(=O)NC(C(=O)O)C(C)C)CC[C@]4(C)C3CC[C@@]21C (stereo partly specified)
 : -0.2	0%	1	13%	2%	-0.2%	-17
> Nc1cc(C(=O)Nc2ccc(Cl)cc2)ccc1N1CC2CC(C1)c1cccc(=O)n1C2 (stereo unspecified)
 : x	u	2	-20%	0%	-15%	-13
> COc1ccc(-n2c(=S)[nH]c3ccc(C)cc3c2=O)cc1
 : x	u	x	x	x	-1.6%	1
> CN1CCN(c2ccc(C(N)=O)cc2[N+](=O)[O-])CC1
 : 4.2	3%	-1	13%	9%	0.8%	7
> CC(C)c1onc(C(=O)N2CCC3(CC2)OCCO3)c1[N+](=O)[O-]
 : x	u	-12	10%	13%	-1.7%	11
> COc1cc(OC)c(OC)cc1CNCCc1ccc2c(c1)OCO2
 : -3.2	-30%[inhibitor]	-12	-3%	4%	-0.1%	x
> COC(=O)C1=C(c2cccc(OCc3ccccc3)c2)C[C@@H]2CC[C@H]1N2C(=O)NCc1ccc(Br)cc1
 : x	-1%	2	x	-5%	-3.9%	0
> COCCOC(=O)C1=C(N)OC(C)=C(C(=O)OC)C12C(=O)Nc1ccccc12 (stereo unspecified)
 : 4.4	-39%[inhibitor]	-6	13%	8%	3.4%	8
> CCNc1cc(N2CCN(C)CC2)ccc1[N+](=O)[O-]
 : -2.0	12%	-9	u	0%	x	-4
> COC(=O)C1=C(c2ccccc2)C[C@@H]2CC[C@H]1N2C(=O)NCc1ccccc1
 : x	-7%	x	x	4%	1.1%	-2
> Cc1ccc([C@H]2C[C@H](O)[C@@H](n3cc(COC(=O)c4ccccc4)nn3)CN2CC2CCCCC2)cc1
 : x	u	x	x	x	-2.3%	6
> COC(=O)C1=C(c2ccc(OC)c(OC)c2)C[C@@H]2CC[C@H]1N2C(=O)NC1Cc2ccccc2C1
 : x	x	-12	x	-3%	0.2%	0
> Cc1ccc(C(=O)N[C@@H](C)CN2C3=NC[C@H](Cc4ccccc4)N3C[C@H]2Cc2ccc(O)cc2)cc1Br
 : -0.6	x	u	56µM*	1%	-0.4%	-3
> CCC1(CCCC(=O)c2ccc(F)cc2)C(=O)NC(=S)NC1=O
 : 7.0	-6%	1	-8%	-11%	3.9%	-6
> CC(=O)OC1CC2(O)C3CCC4CC(O)CCC4(C)C3CCC2(C)C1C1=CC(=O)OC1 (stereo unspecified)
 : x	-65%[inhibitor]	x	x	10%	-1.2%	7
> Cn1cc(C(=O)c2ccccc2)c2ccccc21
 : 3.2	25%	1	15%	-26%	0.7%	0
> CCC(C)n1c(O)c(/C=N/Nc2nc3c(c(=O)n(C)c(=O)n3C)n2C)c(=O)[nH]c1=S (stereo unspecified)
 : 12	-1%[15.4 µM]	16	-18%	-12%	x	-83*
> CCCCOc1ccc(Cn2c(=O)oc3ccccc32)cc1
 : 0.1	-18%	-2	2%	-2%	2.9%	19
> CN(CCc1nnc(N)s1)[N+](=O)[O-]
 : -0.7	-118%[inhibitor]	6	-4%	9%	-3.2%	x
> COc1cc(C)c(CN2CCN(c3ccccc3)CC2)cc1C
 : 0.2	u	-1	u	10%	1.1%	-9
> COC(=O)C1=C(c2cc3ccccc3o2)C[C@@H]2CC[C@H]1N2C(=O)N1CCC(C)CC1
 : x	2%	x	x	-16%	1.1%	-4
> CC/C(=N\Nc1ccccc1)c1c(O)[nH]c(=O)[nH]c1=O
 : -0.2	-6%	x	6%	5%	-0.3%	x

# Full records, quoted from the list:
# CC/C(=N\Nc1ccccc1)c1c(O)[nH]c(=O)[nH]c1=O in the list: Menin-MLL FL inh = -0.2; gsp agonist = -6%; TRPV1 PAM = x; Sfp PPTase inh = 6%; gsp antagonist = 5%; ClpP mod = -0.3%; CtBP-E1A inh = x
# CCC1(CCCC(=O)c2ccc(F)cc2)C(=O)NC(=S)NC1=O in the list: Menin-MLL FL inh = 7.0; gsp agonist = -6%; TRPV1 PAM = 1; Sfp PPTase inh = -8%; gsp antagonist = -11%; ClpP mod = 3.9%; CtBP-E1A inh = -6

# Taken from above:
# Result of Cc1ccccc1NC(=O)N1Cc2ccccc2-n2nncc2C1 under ClpP mod: 0.2%
# Result of OCCNCCc1c[nH]c2ccc(OCc3ccccc3)cc12 under gsp agonist: 0%
# Result of c1cnc(N2CCNCC2)nc1 under TRPV1 PAM: 3
